CtBP-E1A inh – inhibitors of CtBP/E1A interaction | AlphaScreen GST-E1A/His-CtBP binding, 1536-well; stronger effect = lower value; control for the full effect not named in the record | activity change, % (no concentration beside the values) | 340,000 compounds, 0.49% hits | AID 651724; in the data active means activity change below about -65%; inconclusive means about -30% to -65%; inactive means above about -30%; further: on the % scale 0 is the no-effect control and ±100 the full control effect
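AlphaScreen with 125 nM GST-E1A and 125 nM His-CtBP (5X stocks) in Tris pH 8.0, 300 mM NaCl, BSA, Tween 20, TCEP. Compounds preincubated 2 h at 37 deg C, then glutathione donor/nickel acceptor beads added for 1 h at 37 deg C in dark.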
TRPML1 inh – blocks the human TRPML1 channel; Q9GZU1; TRPML1-inducible cells, Ca2+ dye fluorescence, FDSS; stronger effect = lower value; inhibition of EC80 agonist-evoked calcium signal; activity change, negative = inhibition, % (no concentration beside the values); 390,000 compounds, 0.02% hits; in the data active means activity change below about -50%; inconclusive means about -30% to -50%; inactive means above about -30%;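 further: stimulus is agonist 54-4 at its EC80 concentration; on the % scale 0 is the no-effect control and ±100 the full control effect; compound concentration not given in the record; the text of the record puts the active cut at -80%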
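Calcium fluorescence in TRPML1-DL cells induced overnight with Tet: a 110 s read after compound pin addition, then a 110 s antagonist read after challenge with 54-4 at 4 uM final (EC80).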
D2 PAM – human D2 receptor positive allosteric modulation | P14416 | DiscoveRx D2 beta-arrestin cells, luminescence, 90 min; 100% = 57 uM dopamine signal | potentiation, % (concentration not given with the values) | 360,000 compounds, 0.23% hits | AID 624464; active = potentiation of 50% or more; inconclusive = 30% to 50%; inactive = 30% or less;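 further: tested on top of an EC20 dose of dopamine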
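PathHunter beta-arrestin assay in DiscoveRx D2 cells. Compounds were added with an EC20 of dopamine (50 nM final) for 90 min at 37 deg C. Luminescence was read 1 h after detection reagent, with 57 uM dopamine as the EC100 control.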
TRPML1 ag – activates the human TRPML1 channel; Q9GZU1; TRPML1-expressing cells, Ca2+ dye fluorescence, FDSS; host cell line not named in the record; reference of the full effect not given here; activation, % (concentration not given with the values); 410,000 compounds, 0.12% hits; AID 624414; in the data active = activation above about 50%; inconclusive = about 30% to 50%; inactive = below about 30%; further: 0% is about no effect; the text of the record puts the active cut at 80%
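Calcium fluorescence on an FDSS kinetic reader gave the read-out. Tet-induced TRPML1-DL cells were plated overnight, dye-loaded (Ca8 with quencher, 45-90 min, room temperature, dark), then read 110 s after compound addition, and again 110 s after 4uM final 54-4 (EC80).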
TRPV1 potentiator – potentiators of human vanilloid receptor 1 (TRPV1). potentiation, % at 8.33 µM. 320,000 compounds, 0.02% hits. AID 540277. Q8NER1. TRPV1-expressing cells, Fluo-8 calcium influx, capsaicin EC20 potentiation; host cell line not named in the record; control for the full effect not named in the record; active means potentiation above 80%; inconclusive means 30% to 80%; inactive means below 30%; further: 0% is about no effect
Target sequence (Q8NER1 whole entry, looked up): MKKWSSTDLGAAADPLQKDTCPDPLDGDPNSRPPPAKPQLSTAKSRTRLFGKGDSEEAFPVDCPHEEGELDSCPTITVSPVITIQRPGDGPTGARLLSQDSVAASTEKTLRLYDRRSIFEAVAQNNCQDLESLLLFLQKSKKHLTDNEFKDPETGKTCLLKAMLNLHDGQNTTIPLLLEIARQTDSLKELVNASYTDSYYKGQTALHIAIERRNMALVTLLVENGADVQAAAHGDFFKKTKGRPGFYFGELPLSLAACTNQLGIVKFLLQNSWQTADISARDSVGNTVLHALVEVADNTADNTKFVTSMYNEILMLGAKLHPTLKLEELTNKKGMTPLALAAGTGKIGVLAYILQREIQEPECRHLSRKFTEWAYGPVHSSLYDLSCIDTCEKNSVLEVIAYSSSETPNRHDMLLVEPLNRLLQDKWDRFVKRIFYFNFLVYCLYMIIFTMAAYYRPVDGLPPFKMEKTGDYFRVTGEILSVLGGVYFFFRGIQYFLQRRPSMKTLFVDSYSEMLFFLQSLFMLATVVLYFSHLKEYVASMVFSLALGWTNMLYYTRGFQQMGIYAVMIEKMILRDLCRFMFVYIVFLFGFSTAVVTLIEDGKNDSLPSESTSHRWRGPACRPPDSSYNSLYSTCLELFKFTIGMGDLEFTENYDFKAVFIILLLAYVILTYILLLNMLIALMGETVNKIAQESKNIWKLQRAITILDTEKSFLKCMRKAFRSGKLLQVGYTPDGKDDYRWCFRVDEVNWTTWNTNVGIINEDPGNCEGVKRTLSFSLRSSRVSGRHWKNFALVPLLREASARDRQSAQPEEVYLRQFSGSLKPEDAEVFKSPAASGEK
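Cells expressing TRPV1 were dye-loaded with Fluo-8 and read kinetically: 10 s baseline, 3 min after compound (agonist portion), then 2 min after EC20 capsaicin (allosteric enhancer portion). Calcium-bound dye fluorescence at 480/520 nm.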
Six1-Eya2 blk – blocks human Six1 binding to Eya2; AID 651725; activity change, % (no concentration beside the values); Q15475+O00167; 360,000 compounds, 0.56% hits; AlphaScreen GST-Six1/His-Eya2 binding, biochemical; stronger effect = lower value; control for the full effect not named in the record; in the data active = activity change below about -65%; inconclusive = about -30% to -65%; inactive = above about -30%; further: on the % scale 0 is the no-effect control and ±100 the full control effect
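Six1/Eya2 binding was read as AlphaScreen signal after compounds were pinned into GST-Six1 plus His-tagged Eya2 (5X stock 250/500 nM) in pH 8.0 Tris/NaCl/TCEP buffer, beads added, then incubated 1 h, 37 C, dark.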
* marks the source's active call; other numbers are inactive results; ? = inconclusive; / = no result given.

SMILES | CtBP-E1A inh | TRPML1 inh | D2 PAM | TRPML1 ag | TRPV1 potentiator | Six1-Eya2 blk
Cc1c(C#N)c2ccccc2n1CC(=O)NCc1ccccc1 | 12 | -1 | 0 | -1.3 | -9 | 2
Cc1ccsc1C(C(=O)NC(C)(C)C)N(Cc1ccco1)C(=O)c1csnn1 (stereo not given) | 1 | -7 | -3 | 0.7 | -2 | 4
C/C(=N/NS(=O)(=O)c1ccc(Br)cc1)c1cccc(NC(=O)C2CC2)c1 | -2 | 12 | -4 | -0.6 | / | -4
O=c1oc2cc(OCc3ccc(F)cc3F)ccc2cc1-c1ccccn1 | 6 | -1 | -14 | -0.9 | -3 | 9
Nc1ccc2c(c1)C/C(=C/c1ccco1)C2=O | 6 | -13 | -7 | 6.3 | -3 | -3
Cc1cc(C)cc(C(=O)Nc2ccncc2)c1 | -9 | -18 | -3 | 0.2 | -20 | -2
Cc1cc(CN(C)Cc2c(C(=O)N3CCCCCCC3)nc3ccc(Cl)cn23)n[nH]1 | 0 | 2 | -4 | 0.0 | -1 | -16
COc1ccc(S(=O)(=O)N2CCC(C(=O)N3CCCCCC3)CC2)cc1 | 7 | 17 | 5 | -0.6 | 15 | 9
Cc1cc(=O)oc2cc(NC(=O)c3ccccc3OC(F)F)ccc12 | -2 | -24 | -2 | -1.2 | ? | -5
O=C(C1CCCCC1)N1CCC(CO)(Cc2ccccc2Cl)CC1 | / | -13 | -12 | 0.2 | -12 | -5
COc1ccc(-c2cc(C(=O)N3CCCC(C(F)(F)F)C3)c3ccccc3n2)cc1OC (stereo not given) | 2 | 47 | 7 | -0.8 | -20 | 0
O=C(Nc1nnc(-c2ccccc2Cl)o1)c1ccco1 | -10 | -18 | 11 | 3.9 | 1 | -11
CC1CCN(CC(=O)Nc2ccc(S(=O)(=O)N3CCC(C)CC3)cc2)CC1 | -5 | 10 | -11 | -0.2 | -13 | 2
O=C(CS(=O)c1cccc(C(F)(F)F)c1)Nc1ccc(Cl)cc1Cl (stereo not given) | 4 | -11 | -14 | 0.6 | -6 | -1
CCC(=O)Nc1ccc(C(=O)CSc2nc3ccc(C)cc3[nH]2)cc1 | -3 | 0 | 2 | 0.8 | -3 | 12
CSc1nn2cc(CCN3CCOCC3)c(-c3ccc(F)cc3)nc2c1C#N | -25 | 66 | -4 | 0.1 | ? | -2
CCCn1ncc(C(=O)N(C)C2CCCN(Cc3ccccc3F)C2)c1C (stereo not given) | 1 | -17 | -2 | 1.1 | 7 | 2
Nc1nnc(SCC(=O)OCc2ccc(Cl)c(Cl)c2)s1 | -1 | 0 | -12 | 0.1 | -10 | 1
CC(=O)c1cccc(S(=O)(=O)N2CCCC(c3nc4c(nnn4Cc4ccc(C)cc4)c(=O)[nH]3)C2)c1 (stereo not given) | -28 | 14 | -2 | 2.5 | -3 | -18
O=C(O)c1ccccc1C(=O)N1CCN(c2ccccc2)CC1 | 2 | 6 | -34 | 0.3 | -11 | -3
COCCC(=O)N1CCC(Oc2ccc(C(=O)N3C[C@@H]4CCC[C@H]3C4)cc2)CC1 | 1 | 7 | -16 | 0.3 | -1 | 2
O=C(COC(=O)c1ccccc1Br)Nc1nnc(-c2ccccc2)o1 | ? | 9 | -3 | -0.6 | 25 | -28
COc1ccc(CC2(CO)CCN(C(C)Cc3ccc(Cl)cc3)CC2)cc1 (stereo not given) | 1 | 15 | -9 | -0.1 | 2 | -8
COc1ccc(-c2cc(-c3ccccc3)nc(Cl)n2)cc1OC | 0 | 16 | 8 | 2.4 | -7 | 24
CCN(CC(=O)Nc1c(F)cccc1F)C(=O)c1cc(C)oc1C | 0 | 0 | -10 | -0.9 | 4 | -2
CC(C)CC(=O)c1c[nH]c(C(=O)NCCCN2CCOCC2)c1 | 8 | -2 | -4 | -0.5 | -8 | 0
CNC(=S)N1N=C(c2ccc(OC)cc2)CC1c1ccccc1Cl (stereo not given) | -7 | -13 | 1 | -0.1 | 13 | -3
CCc1c(N)nc(N)nc1Nc1ccccc1C | 0 | -9 | -27 | 0.4 | / | 0
CN1CCN(C(=O)CCC(=O)O)CC1 | 7 | / | -2 | / | -6 | 4
CCOC(=O)C1=NN(C(C)=O)C2(CC(=O)N(c3cc(C)cc(C)c3)C2=O)C1 (stereo not given) | 10 | 4 | -3 | -0.8 | 17 | 5
COc1ccc(S(=O)(=O)N(CCc2ccccc2)CC(=O)NC(C)C)cc1 | 5 | 7 | -7 | 0.2 | -4 | 0
CCOC(=O)C1(CCOC)CCN(C(C)CCc2ccc(OC)cc2)CC1 (stereo not given) | / | 6 | -42 | 0.7 | -5 | -3
O=C1CCCN1CCCNS(=O)(=O)c1ccc(F)cc1F | 5 | -1 | -6 | 0.7 | -3 | 3
O=C(Cn1ccccc1=O)c1cccs1 | -6 | -5 | 17 | 0.3 | 0 | 4
COC(=O)C1=C(C)N(C)C(=O)NC1c1ccc(O)c(OC)c1 (stereo not given) | -1 | 23 | -2 | -0.3 | ? | 4
Cc1cc(Oc2nnnn2-c2ccccc2)ccc1Cl | 28 | 30 | 5 | 2.0 | -7 | 19
FC(c1nc2ccccc2[nH]1)C(F)(F)F (stereo not given) | -8 | -1 | -8 | 0.7 | 18 | 6
CCOC(=O)Cc1cc(=O)n2[nH]c(C)c(C#N)c2n1 | 4 | -12 | -5 | 0.4 | 1 | 4
O=C(Nn1cnnc1)c1cc([N+](=O)[O-])cc([N+](=O)[O-])c1 | -8 | 3 | ? | 0.1 | 9 | 5
N#Cc1cnc2nc1NCCCCCCC2 | 5 | -1 | -3 | -0.7 | / | -12

3 of the entries above in order of their number in TRPML1 inh, highest first:
SMILES	TRPML1 inh
CCOC(=O)C1(CCOC)CCN(C(C)CCc2ccc(OC)cc2)CC1 (stereo not given)	6
CC(C)CC(=O)c1c[nH]c(C(=O)NCCCN2CCOCC2)c1	-2
CCOC(=O)Cc1cc(=O)n2[nH]c(C)c(C#N)c2n1	-12

Going on with the list.
SMILES | CtBP-E1A inh | TRPML1 inh | D2 PAM | TRPML1 ag | TRPV1 potentiator | Six1-Eya2 blk
CN(C)CCOc1ccc(Cl)cc1C(C)(C)C | 9 | 11 | -18 | -0.3 | -4 | -13
O=C(CC1(O)C(=O)Nc2ccccc21)c1cccnc1 (stereo not given) | 1 | -18 | -12 | 0.5 | 0 | 3
Cc1cc(NC(=O)c2ccc(F)cc2)n(C)n1 | / | -12 | -7 | 1.8 | ? | -2
COc1cccc(C2C=C(c3ccc(OC)cc3OC)Nc3nnnn32)c1 (stereo not given) | -16 | -9 | -5 | 2.8 | 5 | 1
NC1=NC[C@H](c2ccccc2)N1CCc1cccc(F)c1 | / | 4 | -17 | -0.3 | -11 | -2
CCOc1ccc(-c2nnn(CC(=O)NCc3ccco3)n2)cc1 | 6 | -10 | 14 | 0.5 | 9 | -3
COc1ccc(-n2cnc3c(sc4nccc(N(C)C)c43)c2=O)cc1 | -10 | -12 | 6 | -0.1 | -2 | -3
COc1cc(NC(=S)NCCCN2CCOCC2)cc(OC)c1 | 11 | 10 | -28 | 0.0 | 20 | 3
COc1cc(/C=N/NC(=O)c2ccoc2C)ccc1OCCN1CCCCC1 | -14 | 22 | -15 | 0.4 | ? | -3
Fc1ccc(-c2ccnc(=S)[nH]2)cc1 | -8 | -5 | -25 | 0.9 | ? | 0
C=CCc1cccc2cc(-c3nc4ccc(C)cc4[nH]3)c(=O)oc12 | / | -7 | / | 2.9 | -11 | /
COc1ccc(C(=O)Nc2c3c(nn2-c2cccc(Cl)c2)CS(=O)C3)cc1 (stereo not given) | 4 | 2 | 4 | 1.8 | 5 | 0
COC(=O)Cn1c(Cc2ccccc2)nc2ccccc21 | -2 | -17 | -2 | -0.1 | 7 | 11
CCN(CC(=O)Nc1ccccc1C(F)(F)F)C(=O)c1ccc(NC(=O)c2cccs2)cc1 | 4 | 8 | -4 | 0.4 | / | -3
CC1CC(OCC(O)CN2CCCCC2C)CC(C)(C)C1 (stereo not given) | -8 | 48 | -8 | -0.7 | -12 | -17
Cc1cc(NC(=O)c2cc(C(C)C)on2)no1 | -3 | 12 | -21 | -0.1 | -1 | -4
CSCCC(NS(=O)(=O)c1ccc(C)cc1)C(=O)N1CCN(C(C)=O)CC1 (stereo not given) | -11 | 27 | 8 | 1.2 | 9 | 1
O=C(Nc1cccc(Br)c1)Oc1cccc2cccnc12 | ? | / | -2 | -0.4 | / | -90*
CCCC(C(=O)NCCC(C)C)N(Cc1ccccc1)C(=O)c1snc(C(N)=O)c1N (stereo not given) | 13 | 8 | -4 | 2.0 | -15 | -4
c1ccc2sc(NCC3CCCO3)nc2c1 (stereo not given) | 11 | 3 | -1 | 0.0 | -3 | 2

Gathered by group: those above containing a thiophene ring, fused or not.
SMILES | CtBP-E1A inh | TRPML1 inh | D2 PAM | TRPML1 ag | TRPV1 potentiator | Six1-Eya2 blk
Cc1ccsc1C(C(=O)NC(C)(C)C)N(Cc1ccco1)C(=O)c1csnn1 (stereo not given) | 1 | -7 | -3 | 0.7 | -2 | 4
O=C(Cn1ccccc1=O)c1cccs1 | -6 | -5 | 17 | 0.3 | 0 | 4
COc1ccc(-n2cnc3c(sc4nccc(N(C)C)c43)c2=O)cc1 | -10 | -12 | 6 | -0.1 | -2 | -3
CCN(CC(=O)Nc1ccccc1C(F)(F)F)C(=O)c1ccc(NC(=O)c2cccs2)cc1 | 4 | 8 | -4 | 0.4 | / | -3

More entries follow.
SMILES | CtBP-E1A inh | TRPML1 inh | D2 PAM | TRPML1 ag | TRPV1 potentiator | Six1-Eya2 blk
CC(=O)Nc1ccc(NC(=O)c2cccc(-c3cc4ccccc4oc3=O)c2)cc1 | -2 | 1 | 1 | 0.5 | ? | 4
CCOC(=O)CN1C(=O)C(O)=C(C(C)=O)C1c1ccc([N+](=O)[O-])cc1 (stereo not given) | 3 | -2 | -6 | 0.1 | 5 | 1
O=C1S/C(=C/c2ccc(N3CCOCC3)o2)C(=O)N1Cc1c(F)cccc1Cl | 0 | -4 | 1 | ? | 19 | 25
O=C(OCc1ccccc1)C1=NNC2C(=O)N(c3ccc(Br)cc3)C(=O)C12 (stereo not given) | -8 | -17 | -3 | -0.2 | -4 | -1
CN(C)CCCNC(=O)C[C@H]1C[C@H](C(=O)N2CCCCC2)[C@@]2(C)c3[nH]c4cc(CCC(=O)N(C)C)ccc4c3CCN2C1=O | 5 | -10 | -4 | 0.8 | / | 2
O=C(CCc1nc2ccccc2c(=O)[nH]1)NNC(=O)c1ccccc1Cl | -3 | 9 | 3 | 1.0 | -3 | -9
COc1ccccc1Oc1ccc(Oc2ccccc2OC)cc1 | 25 | -1 | 0 | 0.7 | 13 | 19
COc1ccc(NS(=O)(=O)c2csc(C(=O)N3CCCC3)c2)c(OC)c1 | / | 14 | -8 | 0.5 | 2 | 9
O=C(O)CN1C(=O)C2C3CCC(C3)C2C1=O (stereo not given) | 9 | -16 | 5 | -0.7 | / | 8
COc1ccc(/C=C2\SC(=O)N(CC(=O)Nc3ccc(F)cc3)C2=O)cc1O | / | 0 | 2 | 0.1 | -19 | 1
COc1ccc(NC(=O)COc2ccc(C(=O)OCC(=O)N(C(C)C)C(C)C)cc2OC)cc1 | / | -5 | -7 | 1.0 | 8 | -3

Bioassay records from PubChem BioAssay.
